# YopH PTP inh – blocks Yersinia enterocolitica YopH tyrosine phosphatase; fluorescence Ex485/Em525; inhibition, %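 (about 10 µM by stock and volumes)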; hit rate 0.16% among 140,000;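 active = inhibition of 50% or more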;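 note: controls were vehicle for no effect and minimum signal wells for full effect; inactives centre near -20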
# Arbovirus anti – arbovirus infection inhibition. arbovirus infection cell-based antiviral screen. inhibition, % at 10 µM. hit rate 0.37% among 200,000. AID 1251;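 active = inhibition from about 30%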;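 note: bluetongue infection of BSR cells; cell survival read as ATP light after 72 h; 0% = infected wells without compound and 100% = uninfected wells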
# Mtb growth – M. tuberculosis H37Rv growth inhibitors, H37Rv strain (AID 1626); M. tuberculosis H37Rv growth inhibition; higher % means a stronger effect; inhibition, % at 10 µM; hits with a dose series show IC50 in µM; hit rate 0.95% among 220,000;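 active = confirmed in a dose series; inconclusive = inhibition above 80% but not taken into the dose series; inactive = below 80% or under 30% at every dose of the series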;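 note: bacteria incubated seven days before Alamar blue readout; 0% = bacteria only wells and 100% = bacteria with antibiotic wells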
# Mtb bLac sens – beta-lactam sensitization of Mtb H37Rv; M. tuberculosis H37Rv growth with meropenem, percent inhibition; hits of this screen are not shown here; hit rate 0.27% among 330,000; AID 434955; inhibition, % at 25 µM;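 active = about 74% or more and at least 40 points above the plate without the antibiotic, then above 30% in a dose series; inconclusive = first-round hits that could not be retested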;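 note: growth measured after seven days incubation then overnight dye step; 0% = bacteria only wells and 100% = bacteria with antibiotic; twin plates without the antibiotic show which effects depend on it; some results filed as inactive read as strong as hits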
# RecA splice inh – blocks M. tuberculosis RecA intein splicing; P9WHJ3; cell-free RecA intein splicing, fluorescence; AID 2221; inhibition, %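 (about 9 µM by stock and volumes)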; hit rate 0.75% among 290,000; in the data active = inhibition above about 30%; inconclusive = no clear call, values can overlap the other calls;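 note: 0% = vehicle wells and 100% = reference inhibitor control wells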
# Arbovirus anti repeat – second read-out of Arbovirus anti, no call of its own (marks repeat the call); inhibition, %; measured here: 10K subset replicate screen; many hits read low in the repeat;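 first of two repeat runs on a subset; 0% = infected and 100% = uninfected wells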
# Starred values were filed as active, the others as inactive; ? = inconclusive; . = not tested or not shown. Only part of the results is shown. The share of hits here may be higher or lower than overall.
# The opening 6 entries as a preview:
SMILES,YopH PTP inh,Arbovirus anti,Mtb growth,Mtb bLac sens,RecA splice inh,others
CC1(C)Cc2c(c(-c3ccco3)[nH]c(=O)c2C#N)CO1,8,12,-2%,-6,-2.5,
COc1ccc(CCNC(=O)C(=O)NCC2OCCN2S(=O)(=O)c2ccc3c(c2)OCCO3)cc1 (stereo unspecified),.,.,.,2,3.0,
O=C(Cc1ccc(Br)cc1)Nc1ccccc1Sc1ccccc1,-20,-10,7%,7,.,
COc1cc(NC(=O)c2ccccc2)c(C)cc1NC(=O)CC(CC(=O)O)c1ccccc1 (stereo unspecified),.,.,.,-6,0.0,
OCC1OC(n2nnc3ccccc32)C(O)C(O)C1O (stereo unspecified),-6,-4,-9%,-3,0.0,
O=C(NCC1CCCO1)c1ccc2c(=O)n(CC3CCCO3)c(=S)[nH]c2c1 (stereo unspecified),0,-3,-8%,-9,0.5,

# All compounds of this part, from the first entry:
SMILES,YopH PTP inh,Arbovirus anti,Mtb growth,Mtb bLac sens,RecA splice inh,others
CC1(C)Cc2c(c(-c3ccco3)[nH]c(=O)c2C#N)CO1,8,12,-2%,-6,-2.5,
COc1ccc(CCNC(=O)C(=O)NCC2OCCN2S(=O)(=O)c2ccc3c(c2)OCCO3)cc1 (stereo unspecified),.,.,.,2,3.0,
O=C(Cc1ccc(Br)cc1)Nc1ccccc1Sc1ccccc1,-20,-10,7%,7,.,
COc1cc(NC(=O)c2ccccc2)c(C)cc1NC(=O)CC(CC(=O)O)c1ccccc1 (stereo unspecified),.,.,.,-6,0.0,
OCC1OC(n2nnc3ccccc32)C(O)C(O)C1O (stereo unspecified),-6,-4,-9%,-3,0.0,
O=C(NCC1CCCO1)c1ccc2c(=O)n(CC3CCCO3)c(=S)[nH]c2c1 (stereo unspecified),0,-3,-8%,-9,0.5,
Cc1ccc(C2CC(=O)C(C=NCCN3CCN(C(=O)Cc4ccccc4)CC3)=C(O)C2)cc1 (stereo unspecified),-55,-7,-6%,0,-7.0,
CCc1cc(C(=O)NC(C)C2CCCO2)cs1 (stereo unspecified),.,.,.,2,0.5,
O=C(COC(=O)C1CCC(=O)N1)Nc1cc(Cl)ccc1Cl (stereo unspecified),-22,1,5%,-6,-5.2,
CC1(O)N(Cc2ccccc2)C(=O)OC12CCCCC2 (stereo unspecified),-48,-1,3%,0,-12,
O=C(COC(=O)CN=C1NS(=O)(=O)c2ccccc21)Nc1ccccc1OC(F)F,.,7,-5%,-3,0.1,
CCCCn1c(CN(C)Cc2ccccc2)nc2c1c(=O)n(C)c(=O)n2C,2,2,-9%,1,1.9,
COC(=O)c1ccc(-c2sc3nc(N4CCOCC4)c4c(c3c2N)CC(C)(C)OC4)o1,-39,0,-10%,4,-19,
Cc1ccc2cc(CCNC(=O)C(C)C)c(=O)[nH]c2c1C,-8,2,5%,2,-3.8,Arbovirus anti repeat=-1
COCCCN1C(=O)c2ccc(C(=O)NCc3ccco3)cc2C1=O,-36,9,-4%,-6,2.1,
O=C(OCCN1CCCC1)C1(c2ccccc2)CCCC1,-24,6,-5%,.,1.8,
Cc1ccc(N2CCCCn3c2nc2c3c(=O)n(CC(=O)O)c(=O)n2C)cc1,-38,12,-7%,-2,3.1,
CCCCCC[N+](C)(C)CCSSCC[N+](C)(C)CCCCCC,.,.,-2%,-10,-0.8,
Cc1ccc(CNS(=O)(=O)CCNC(=O)c2ccc3c(c2)OCO3)cc1,.,.,.,-13,-0.1,
c1cnc2nc(-c3ccc4c(c3)OCO4)cn2c1,.,-21,-9%,-8,-1.1,
CN(Cc1ccccc1)S(=O)(=O)c1ccc(Cl)nc1,-25,5,7%,7,0.3,
Cc1ccc(-c2csc3ncnc(SCC(=O)Nc4nnc(C)s4)c23)cc1,-50,-3,-10%,1,-1.9,
O=C1C2CC=C(Cl)CC2C(=O)N1CCc1c[nH]c2ccccc12 (stereo unspecified),2,12,-5%,12,0.8,
COC(=O)c1nnn(CC(=O)NC(=O)Nc2ccc(F)cc2)c1C(=O)OC,-30,1,0%,?,1.0,
Cc1ccccc1N(CC(=O)NC(C)(C)C)C(=O)c1ccc(-c2ccccc2)[nH]1,.,6,2%,-5,1.8,

# Gathered by group: those above with a COOH group
SMILES,YopH PTP inh,Arbovirus anti,Mtb growth,Mtb bLac sens,RecA splice inh,others
COc1cc(NC(=O)c2ccccc2)c(C)cc1NC(=O)CC(CC(=O)O)c1ccccc1 (stereo unspecified),.,.,.,-6,0.0,
Cc1ccc(N2CCCCn3c2nc2c3c(=O)n(CC(=O)O)c(=O)n2C)cc1,-38,12,-7%,-2,3.1,

# New compounds follow.
SMILES,YopH PTP inh,Arbovirus anti,Mtb growth,Mtb bLac sens,RecA splice inh,others
Cn1ccnc1SCC(=O)c1c[nH]c2ccccc12,.,9,0%,-1,0.1,
CCN(C(=O)CSc1nnnn1C)c1c(N)n(Cc2ccccc2)c(=O)[nH]c1=O,.,-9,-8%,-3,-3.1,
CCN(CC)N=Nc1[nH]nc2nc(C)cc(C)c12,-25,-4,-10%,48,1.3,
COc1cccc(NC(=O)Nc2cccc(C(=O)O)c2)c1,.,6,0%,0,-0.3,
Cc1[nH]c2ccccc2c1C(=O)CSC(=S)N1CCOCC1,.,.,3%,66,2.5,
NS(=O)(=O)c1ccc(NC(=O)C2Cc3ccccc3C(=O)O2)cc1 (stereo unspecified),.,15,22%,-3,8.5,
Cc1nc(=O)c(-c2ccccc2)c(C)n1-c1ccc(O)cc1,14,-2,1%,-4,-3.6,
CC(C)Oc1ccccc1C1NC(=O)CCC1[N+](=O)[O-] (stereo unspecified),.,.,.,6,-0.5,

# Source: PubChem BioAssay (several laboratories)
